Sa growth inh – inhibitors of Staphylococcus aureus growth at 42 °C; S. aureus RN4220 growth, OD600, 20 h; stronger effect = lower value; relative growth, % (test concentration not listed); 170,000 tested, 0.53% active; AID 720641;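 active = growth at 42 °C up to 50% and 20 or more points under that at 30 °C, or under 10% at both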;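 note: 300 nL library stock went into each well; scaled to the means of positive and negative controls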
GIV-Gai inh – blocks GIV peptide binding to rat Galpha-i3; P08753; Galpha-i3/FITC-GIV peptide fluorescence polarization, 90 min; stronger effect = lower value; scaled: aluminum fluoride 0%, vehicle 100%; percent of control (FP), % (concentration not given with the values); 210,000 tested, 0.42% active; AID 1224905;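 active = replicate mean at 85% of control or lower, very high polarization wells dropped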;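 note: wells of about 15 µL received 100 nL stock; the first replicate is given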
Target sequence (P08753 whole entry, looked up): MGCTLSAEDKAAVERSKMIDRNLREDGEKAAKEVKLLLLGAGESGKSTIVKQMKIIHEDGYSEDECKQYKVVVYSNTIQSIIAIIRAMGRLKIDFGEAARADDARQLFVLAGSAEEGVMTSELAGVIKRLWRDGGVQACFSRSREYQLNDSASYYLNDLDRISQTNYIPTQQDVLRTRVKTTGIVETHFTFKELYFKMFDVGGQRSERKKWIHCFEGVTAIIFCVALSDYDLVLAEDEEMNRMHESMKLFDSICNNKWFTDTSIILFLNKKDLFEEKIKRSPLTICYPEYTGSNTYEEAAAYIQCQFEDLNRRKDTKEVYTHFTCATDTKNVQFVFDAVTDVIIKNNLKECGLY
HCMV UL50-53 inh – cytomegalovirus nuclear egress complex inhibition; 190,000 tested, 0.15% active; inhibition, % (no concentration beside the values); HTRF UL50-UL53 interaction, normalized percent inhibition; AID 1918969;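 active = both replicates at 50% or more, plus weaker picks with an unusually low signal ratio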;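 note: stock transfer was 100 nL into about 20 µL; 0% = negative control wells and 100% = wells with untagged competitor protein; inactives centre near -12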
Sa growth inh second temp – further read-out of Sa growth inh, marked with its call; relative growth, %; measured here: growth at 30 °C;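 optical density after 20 h as mean of two plates; 100% = untreated growth and lower means inhibition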
Starred values were filed as active, the others as inactive; nt = not tested or not shown; & = joins results of further samples.

SMILES | Sa growth inh | Sa growth inh second temp | GIV-Gai inh | HCMV UL50-53 inh
CS(=O)(=O)c1ncc(Cl)cn1 | 110 | 69 | 100 | -8
CCNC(=O)C1CCN(c2nc3cccnc3s2)CC1 | 102 | 107 | 105 | 20
Cn1c(=O)c2c(-c3cccc(Br)c3)n(CCc3c[nH]c4ccccc34)cc2n(C)c1=O | nt | nt | 98 | 4
CCCC(=O)NC(=S)c1c(C)n(C)n(-c2ccccc2)c1=O | 129 | 82 | nt | -47
CC(=O)Nc1cc(C(=O)NC2CCC(C)CC2)ccc1S(=O)(=O)c1ccc(Cl)cc1 (centres undefined) | 106 | 80 | 101 | nt
Cc1ccc(S(=O)(=O)c2nnn(-c3cccc(Cl)c3)c2C)cc1 | 104 | 90 | 107 | nt
CN1CCN(C(=O)c2cccc(Cl)c2)c2cccnc21 | nt | nt | 107 | -26
O=c1oc2ccccc2cc1-c1nc(-c2ccc(Cl)cc2)no1 | 104 | 96 | 106 | -5
CCCOC(=O)CSc1nnc(-c2ccccc2)o1 | 102 | 93 | 102 | nt
O=C(COC(=O)c1sc2ccccc2c1Cl)NC1CCCC1 | 101 | 89 | nt | -32
O=c1c(-c2ccccc2)nnc2sc(-c3c[nH]c4ccccc34)nn12 | nt | nt | 98 | 3
O=C1CCc2cc(S(=O)(=O)NC(Cc3ccccc3)C(=O)Nc3ccc4c(c3)OCCO4)ccc2N1 (centres undefined) | 114 | 90 | 101 | -16
Fc1ccc(-n2nc(-c3ccccc3)c3cnc4ccccc4c32)cc1Cl | 97 | 108 | 102 | 16
CCOc1ccccc1NC(=O)Nc1nnc(N2CCCCCC2)s1 | 128 | 93 | 101 | -15
CCCCOC(=O)c1ccc(NC(=O)c2csnn2)cc1 | 100 | 85 | 102 | -35
CCOc1cc(/C=C2/SC(=Nc3ccccc3)NC2=O)ccc1OC | nt | nt | 105 | -50
COc1cccc(NC(=O)CSc2nnc3scc(-c4ccc(Cl)cc4)n23)c1 | 99 | 95 | 100 | 0
Cc1ccc2oc(=O)c3cc(C(=O)N4CCN(c5ccccc5)CC4)sc3c2c1 | 112 | 90 | 105 | -35
CN(c1ncnc2c1c(-c1ccccc1)cn2-c1cccc(Cl)c1)C1CCCCC1 | 118 | 96 | 106 | nt
COc1ccc(N(C)S(=O)(=O)c2ccc3c(c2)CCN3C(=O)C2CCC2)c(OC)c1 | 100 | 81 | 97 | nt
COc1ccc2ccccc2c1-c1c(OC)ccc2ccccc12 | 90 | 99 | 99 | nt
Cc1noc(C)c1CSc1ncccc1C(=O)NC1=NCCS1 | 97 | 96 | nt | 17
COc1cc(Cl)cc(C(=O)O)c1OCC(=O)O | 96 | 100 | 100 | 0
CCn1nc(C)cc1C(=O)NC1CCN(Cc2c(F)cccc2Cl)CC1 | 104 | 90 | 103 | -10
COc1cc(NC(=O)COCc2cc(-c3ccc4c(c3)OCO4)on2)c(OC)cc1Cl | 108 | 99 | 101 | nt
CCC(C(=O)NC(C)c1ccc2c(c1)OCO2)c1ccccc1 (centres undefined) | 100 | 109 | 110 | -2
CC1CCc2c(sc(/N=C/C=C/c3ccccc3)c2C#N)C1 (centres undefined) | 99 | 97 | nt | 10
O=C(NCC1CCCO1)c1cc2sc3ccccc3c2s1 (centres undefined) | 110 | 75 | nt | -30
COc1ccc(S(=O)(=O)Nc2ccccc2SCc2cc(=O)n3cc(Cl)ccc3n2)cc1 | nt | nt | 104 | -28
O=C(COC(=O)c1ccccc1)c1ccccc1 | 106 | 105 | 103 | 0
O=C(CCCCn1cnc2ccccc21)c1ccccc1 | 86 | 102 | nt | -3
CN(C(=O)c1cc2c(=O)oc3ccccc3c2s1)c1ccc(F)cc1 | 90 | 93 | 108 | -26
CCCCOC(=O)c1cnn2c(C(F)(F)F)cc(-c3ccccc3)nc12 | nt | nt | 106 | -35
COCCNC(=O)CN1CCC(c2ccc(OC)cc2)C(O)C1 (centres undefined) | 96 | 91 | 96 | -4
C=CCNC(=O)COc1ccc(CCC)cc1 | 103 | 80 | 101 | -9
COc1ccccc1Nc1c(C(=O)N2CCOCC2)cnc2ccccc12 | nt | nt | 102 | -12
Cc1ccccc1-c1noc(-c2cccnc2N2CCOCC2)n1 | nt | nt | 100 | -7
CCOC(=O)C1=C(C)N=C2SCCC(=O)N2C1c1ccc(OCc2ccccc2)cc1 (centres undefined) | 100 | 100 | 109 | 0
CC(=O)N1CCOc2ccc(S(=O)(=O)N(C)c3cccc(C)c3)cc21 | 108 | 95 | 115 | -10
COc1ccnc2c1c(=O)n(CC(=O)NCc1ccc3c(c1)OCO3)c(=O)n2C | nt | nt | 113 | 7
Cn1c(=O)c(-c2noc(CCC(=O)Nc3cccc(Cl)c3)n2)nn(-c2ccccc2)c1=O | nt | nt | 105 | -69
O=C(c1cnc2cc(-c3ccc(Cl)cc3)nn2c1)c1cc(F)ccc1O | nt | nt | 99 | -26
O=C(OCc1nc2ccccc2c(=O)[nH]1)c1cccs1 | 91 | 94 | nt | -12
CCOc1ccc(Nc2cc(C)nc3c(-c4ccc(F)cc4)cnn23)cc1 | nt | nt | 98 | 7
O=C(CN1CCCN(Cc2ccc(F)cc2)S1(=O)=O)NCc1ccccc1Cl | 101 | 90 | 103 | nt
CCOC(=O)c1c(C)[nH]c(CCC(=O)NCc2ccccc2Cl)c1C | 83 | 89 | 106 | nt
COc1c(C)cnc2c1c(=O)n(CC(=O)Nc1ccccc1C)c(=O)n2C | nt | nt | 104 | -3
CCN1C(=O)c2ccccc2S(=O)(=O)c2ccc(C(=O)N3CCCC3)cc21 | 102 | 93 | 100&100 | -1

In the list so far, these contain an NH in an aromatic ring.
SMILES | Sa growth inh | Sa growth inh second temp | GIV-Gai inh | HCMV UL50-53 inh
Cn1c(=O)c2c(-c3cccc(Br)c3)n(CCc3c[nH]c4ccccc34)cc2n(C)c1=O | nt | nt | 98 | 4
O=c1c(-c2ccccc2)nnc2sc(-c3c[nH]c4ccccc34)nn12 | nt | nt | 98 | 3
O=C(OCc1nc2ccccc2c(=O)[nH]1)c1cccs1 | 91 | 94 | nt | -12
CCOC(=O)c1c(C)[nH]c(CCC(=O)NCc2ccccc2Cl)c1C | 83 | 89 | 106 | nt

(cont.)
SMILES | Sa growth inh | Sa growth inh second temp | GIV-Gai inh | HCMV UL50-53 inh
O=C(c1ccccc1Cl)n1nc(-c2ccco2)nc1NCc1cccs1 | 103 | 92 | 104 | -19
Cc1ccc(C(=O)OCC(=O)c2ccccc2)s1 | 83 | 90 | nt | -17
Cc1cccc(NC(=O)c2ccn(C(=O)Oc3ccccc3)n2)n1 | 93 | 92 | 101 | -6
O=C(CNS(=O)(=O)c1ccc2c(c1)OCCO2)c1ccc(Cl)cc1 | 71 | 54 | nt | -12
COc1ccc(NC(=O)COC(=O)c2cc(=O)c3ccccc3o2)cc1 | 104 | 96 | nt | -14
O=C(c1cc(-c2ccccc2)on1)N1CCCCC1 | 108 | 95 | 103 | 1
O=S(=O)(Cc1ccccc1)Nc1ccccc1 | 114 | 85 | 103 | -11
O=c1ccc(-c2ccc(S(=O)(=O)N3CCCC3)o2)n[nH]1 | 91 | 90 | 105 | -100
CCN1CCN(C(=O)c2cnn(-c3cccc(Cl)c3)c2C2CCN(C(=O)OC(C)(C)C)CC2)CC1 | 99 | 96 | 104 | nt
Cc1ccc(C2CCCN2C(=O)NC(C)C)cc1 (centres undefined) | nt | nt | 101 | -25
O=C(COc1ccccc1F)Nc1ccc2oc(-c3cccc(Cl)c3)nc2c1 | 99 | 86 | 102 | -14
COc1ccc2c(c1)C(C)CC(C)(C)N2C(=O)Nc1ccc(Cl)cc1 (centres undefined) | 77 | 68 | 100 | nt
CCOc1cc(CNC(CC)CO)c(Br)cc1OCC(N)=O (centres undefined) | 96 | 98 | 103 | -14
CC(C)(C)c1ccc(S(=O)(=O)N2CCNC(=O)C2)cc1 | 96 | 91 | nt | -32
CC(C)c1nnc2c(SCc3ccccc3)nc3ccccc3n12 | nt | nt | 105 | -40
CCCC(=O)Nc1ccc(S(=O)(=O)N2CCC(c3nc4ccccc4s3)CC2)cc1 | nt | nt | 108 | 16
Cc1ccc(NS(=O)(=O)c2ccc(CN3C(=O)c4cccnc4C3=O)s2)nc1 | 103 | 90 | 95 | -24
O=C(O)c1cc(N2CCN(c3ccccn3)CC2)nc2ccc(NS(=O)(=O)c3cccc(F)c3)cc12 | nt | nt | 104 | -69
CC(C)CCNc1nccn(-c2ccc(Cl)cc2)c1=O | 86 | 86 | 110 | -78
O=C(Cn1c(-c2cccs2)cc2ccccc21)NCCc1ccccc1 | 114 | 96 | 105 | -3
Cc1ccc(S(=O)(=O)N2CC(C)C(=O)Nc3ccccc32)cc1 (centres undefined) | nt | nt | 99 | 6
Cc1ccccc1CNC(=O)CCS(=O)(=O)c1cc2c3c(c1)CCN3C(=O)CC2 | 121 | 93 | 107 | nt
C=Cc1ccc(COC(=O)c2nnn(-c3ccc(C)c(C)c3)c2C)cc1 | nt | nt | 100 | -10
COc1ccc(OC)c(S(=O)(=O)c2ccc(Br)cc2)c1 | 96 | 82 | 101 | -21
O=c1c2ccccc2nc(SCc2c(F)cccc2F)n1Cc1ccccc1 | 94 | 90 | 97 | nt
CC(=O)NC(C)Cc1c[nH]c2ccccc12 (centres undefined) | 107 | 87 | 106 | 19
CC(C)(C)NC(=O)CSc1n[nH]c(-c2cccs2)n1 | 102 | 90 | nt | 13
Oc1[nH]c2ccccc2c1C=Nc1ccc2c(c1)CCC2 | 113 | 111 | 100 | -12
CC(C)Nc1nccs1 | 84 | 86 | nt | -12
N#Cc1ccc(NC(=O)[C@@H]2CCCN2C(=O)c2cccs2)cc1 | 94 | 91 | nt | -15
O=c1[nH]n(CCO)c(=O)c2ccccc12 | 97 | 90 | 106 | -8
O=C1CCCC/C1=C/Nc1nc(-c2ccccc2)cs1 | 104 | 99 | nt | -27
O=C(O)CC1(CC(=O)N2CCCC2)CCCCC1 | 102 | 94 | nt | -1
Cc1cc(C)cc(N/C(N)=N\c2nc(C)cc(C)n2)c1 | 84 | 72 | 107 | -32
CC(C)(C)OC(=O)N1CCC(c2c(C(=O)N3CCN(c4ncccn4)CC3)cnn2-c2cccc(F)c2)CC1 | 103 | 105 | 112 | nt
COc1ccc(C(=O)OC(COc2ccccc2)Cn2ccnc2)cc1 (centres undefined) | 80 | 42 | 99 | -19

Single records (already shown). Order of values: Sa growth inh | Sa growth inh second temp | GIV-Gai inh | HCMV UL50-53 inh
CC(C)Nc1nccs1 in the list: 84 | 86 | nt | -12
Oc1[nH]c2ccccc2c1C=Nc1ccc2c(c1)CCC2 in the list: 113 | 111 | 100 | -12
O=C1CCCC/C1=C/Nc1nc(-c2ccccc2)cs1 in the list: 104 | 99 | nt | -27

(next part)
SMILES | Sa growth inh | Sa growth inh second temp | GIV-Gai inh | HCMV UL50-53 inh
C[C@H](NC(=O)c1ccc(Br)cc1)C(=O)O | 87 | 93 | nt | -3
COC(=O)c1ccc(OC)c(CN2CCN(Cc3ccc(C)cc3)S2(=O)=O)c1 | 102 | 94 | 100 | -7
CCn1c(=O)c2ccccc2n(CC(=O)c2ccc(C)cc2)c1=O | 118 | 88 | 103 | 1
Cc1oc(C(C)(C)C)cc1C(=O)Nc1ccc(C(F)(F)F)c(C#N)c1 | 93 | 84 | 108 | -13
c1ccc(-c2nnc(-c3csc(-c4cccnc4)n3)o2)cc1 | 95 | 81 | 102 | -4
Ic1ccc(Nc2nc3nonc3nc2N2CCCCC2)cc1 | 99 | 88 | 101 | nt
Cc1noc(C)c1CSc1ncccc1C(=O)NC1CCCc2ccccc21 (centres undefined) | 93 | 93 | nt | 10
O=C(Nc1nnc(S(=O)(=O)N2CCOCC2)s1)c1ccccc1Cl | 105 | 90 | 102 | -16
Cc1cc(C(=O)n2cc(C)c(-c3cccs3)n2)c(C)o1 | 110 | 95 | 99 | -2
CN(Cc1ccccc1)C(=O)C1CCCN1S(=O)(=O)c1ccc(Cl)cc1 (centres undefined) | 110 | 93 | nt | -2
O=C(OCc1ccccc1Cl)c1cccnc1Cl | 118 | 95 | nt | -8
Cc1ccc(-c2cn3c(n2)sc2cc(C(=O)NC4CCCCC4)ccc23)cc1 | 95 | 92 | 108 | nt

Two entries from above in a different format:
Structure,Sa growth inh,Sa growth inh second temp,GIV-Gai inh,HCMV UL50-53 inh
c1ccc(-c2nnc(-c3csc(-c4cccnc4)n3)o2)cc1,95,81,102,-4
Cc1noc(C)c1CSc1ncccc1C(=O)NC1CCCc2ccccc21 (centres undefined),93,93,nt,10

Other records follow:
SMILES | Sa growth inh | Sa growth inh second temp | GIV-Gai inh | HCMV UL50-53 inh
Cc1csc(SC(C)C(=O)N2CCCc3ccccc32)n1 (centres undefined) | 105 | 96 | nt | -26
CCN(CCCNC(=O)c1cc2c(=O)[nH]c3ccc(C)cc3c2s1)c1ccc(C)cc1 | 99 | 87 | 103 | -24
COC(=O)c1sc2cc(NC(=S)Nc3ccn(C)n3)ccc2c1Cl | 103 | 103 | 104 | 1
CSc1ccccc1C(=O)OCC(=O)Nc1ccc2[nH]c(=O)[nH]c2c1 | 112 | 91 | nt | -15
CCN(CC1COc2ccccc2O1)C(=O)c1cccc(N(C)C)c1 (centres undefined) | 82 | 89 | nt | -19
COc1ccccc1-c1noc(CCC(=O)O)n1 | 107 | 87 | 102 | -25
CCCCOc1ccc(OCCCN2CCOCC2)cc1 | 88 | 88 | nt | -38&-15&-10
Cc1ccc(SCC(=O)Nc2cccc(-c3nc4cc(Cl)ccc4o3)c2C)cc1 | 101 | 82 | 102 | -21
CCCCC(=O)Nc1c(-c2ccccc2)nc2cc(C)ccn12 | nt | nt | 107 | -26

Bioassay records (PubChem BioAssay)

Rows are unselected, and some 0.82% of all compounds hit somewhere here.
